# Menin MLL FP FL – menin-MLL binding inhibition, fluorescein peptide. FP activity change, % at 61.4 µM. Fluorescence polarization, fluorescein-MLL peptide displacement from menin. 290,000 tested, under 10 active; inconclusive = falling polarisation curve, or a change in total fluorescence; inactive = total fluorescence flat and polarisation flat or rising; no compound was filed as active; the % refers to the polarisation; negative = inhibition;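 also: % of control where 0% means no effect; inhibitors lower the polarisation; unlabelled MLL peptide was the positive control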
# ClpP mod – qHTS Assay for Activators of ClpP. ATP-dependent Clp protease proteolytic subunit (Bacillus subtilis (strain 168)), P80244. Potency, µM (series often up to 57.5 µM), for inactives: top-dose activity change, negative = active. 1.9% of 340,000 active. purified B. subtilis ClpP, FRET peptide cleavage, 20 min; active = well fitted falling curve with a large enough effect; inconclusive = small, poorly fitted or top-dose-only effect; inactive = no such curve, though single readings can be large or run the other way; also: potency is read from the fitted curve at half-maximal effect; the source files actives as falling curves though it sought activators and does not explain the sign; nearly all actives have a fitted effect of over 65% in size; many hits overshoot -100%
# Target sequence (P80244 whole entry, looked up): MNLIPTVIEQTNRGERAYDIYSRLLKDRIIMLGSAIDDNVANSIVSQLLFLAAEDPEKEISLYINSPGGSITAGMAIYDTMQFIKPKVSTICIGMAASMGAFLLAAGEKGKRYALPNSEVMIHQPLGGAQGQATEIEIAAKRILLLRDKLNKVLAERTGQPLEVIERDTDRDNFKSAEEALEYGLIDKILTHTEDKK
#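 FRET quenching reversal measured ClpP activation: 10 microg/mL B. subtilis ClpP at pH 8 with the FRET-FV decapeptide, read at 430 nm after 320 nm excitation. The 20-min minus 0-min signal was scaled between DMSO/no-enzyme wells and ADEP (5.8 microM final).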
# gsp ag – gsp mutant agonism; Potency, µM (doses to about 76.9 µM), for the others: top-dose activation (cAMP increase), actives largely listed as activators; gsp mutant cells, cAMP HTRF, 30 min; control for the full effect not named in the record; 0.13% of 340,000 active; active = well fitted activation curve with a large enough effect; inconclusive = small, poorly fitted or top-dose-only effect, or another doubt; inactive = no such curve, though single readings can be large or run the other way; cell line not stated here;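 also: phosphodiesterase inhibitor Ro 20-1724 added with compounds to block cAMP breakdown; potency is read from the fitted curve at half-maximal effect; nearly all actives have a fitted effect of over 60% in size; about a fifth of the inactives were tested at one dose only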
#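 Cells stably selected in G418 were plated at 2000/well, grown 16-24 hr, then given compounds in DMSO with the PDE inhibitor […] (300 uM solution added) for 30 min at 37C; cAMP was read by HTRF.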
# D2 potentiator – human D2 receptor positive allosteric modulation; P14416; DiscoveRx D2 beta-arrestin cells, luminescence, 90 min; 100% = 57 uM dopamine signal; potentiation, % (test concentration not listed); 0.23% of 360,000 active; active = potentiation of 50% or more; inconclusive = 30% to 50%; inactive = 30% or less;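 also: compound concentration not given in the record; tested on top of an EC20 dose of dopamine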
#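 PathHunter beta-arrestin assay in DiscoveRx D2 cells. Compounds were added with an EC20 of dopamine (50 nM final) for 90 min at 37 deg C. Luminescence was read 1 h after detection reagent, with 57 uM dopamine as the EC100 control.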
# gsp antagonist – gsp mutant antagonism | gsp-mutant cells, cAMP HTRF, 30 min; control for the full effect not named in the record | Potency, µM (series often up to 76.9 µM), for the others: at the top dose activity change, negative = inhibition, actives largely listed as inhibitors | 0.4% of 340,000 active; active = falling curve of any shape with a large fitted effect; inconclusive = falling curve, mostly with a smaller effect; inactive = flat or rising curve; cell line not stated here;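 also: intracellular cAMP measured with PDE inhibitor Ro 20-1724 present during compound exposure; potency is read from the fitted curve at half-maximal effect; % is scaled to controls: 0 for no effect and ±100 for the full control effect; nearly all actives have a fitted effect of over 65% in size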
#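 HTRF cAMP measurement after 30 min RT detection following 30 min, 37C compound treatment alongside […] (added as 300 uM solution) in G418-selected cells seeded at 2000/well and grown 16–24 h.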
# TRPV1 potentiator – enhances activation of the human vanilloid receptor TRPV1 | Q8NER1 | TRPV1-expressing cells, Fluo-8 calcium influx, capsaicin EC20 potentiation; host cell line not named in the record; control for the full effect not named in the record | potentiation, % at 8.33 µM | 0.02% of 320,000 active | AID 540277; active means potentiation above 80%; inconclusive means 30% to 80%; inactive means below 30%; also: 0% is about no effect
# Target sequence (Q8NER1 whole entry, looked up): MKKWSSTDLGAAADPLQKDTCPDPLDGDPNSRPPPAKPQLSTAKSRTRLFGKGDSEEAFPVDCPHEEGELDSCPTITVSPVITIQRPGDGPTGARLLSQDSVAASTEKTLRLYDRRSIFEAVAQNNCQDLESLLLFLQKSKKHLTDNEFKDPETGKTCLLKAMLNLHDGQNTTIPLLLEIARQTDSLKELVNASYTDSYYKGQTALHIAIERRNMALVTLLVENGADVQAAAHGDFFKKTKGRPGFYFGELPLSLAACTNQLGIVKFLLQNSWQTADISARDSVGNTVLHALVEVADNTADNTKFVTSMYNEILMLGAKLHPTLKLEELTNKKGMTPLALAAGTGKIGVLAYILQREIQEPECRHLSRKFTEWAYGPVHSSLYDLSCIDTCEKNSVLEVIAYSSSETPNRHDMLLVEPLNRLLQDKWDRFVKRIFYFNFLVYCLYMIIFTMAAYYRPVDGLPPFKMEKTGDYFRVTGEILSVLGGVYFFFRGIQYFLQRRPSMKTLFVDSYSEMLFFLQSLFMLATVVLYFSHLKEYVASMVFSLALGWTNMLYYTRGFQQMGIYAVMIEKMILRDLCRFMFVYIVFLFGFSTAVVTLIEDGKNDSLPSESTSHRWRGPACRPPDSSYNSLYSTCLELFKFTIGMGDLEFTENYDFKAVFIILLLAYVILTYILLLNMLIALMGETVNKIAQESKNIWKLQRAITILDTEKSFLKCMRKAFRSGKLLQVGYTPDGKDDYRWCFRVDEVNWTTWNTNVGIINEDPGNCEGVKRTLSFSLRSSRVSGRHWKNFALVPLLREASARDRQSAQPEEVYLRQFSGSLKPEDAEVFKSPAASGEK
#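 Fluo-8 calcium influx in TRPV1-expressing cells, kinetic read (ex 480/em 520 nm). Compound added and read 3 min for agonist activity, followed by capsaicin at EC20 final and 2 min further read for enhancement.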
# Sfp PPTase inh – Sfp phosphopantetheinyl transferase inhibition; Q9F4F7; Biochemical Sfp PPTase activity, qHTS; Potency, µM, inactives show max response, negative = inhibition, hits mostly inhibitors; 3.5% of 310,000 active; AID 1490; active = well fitted inhibition curve with a large enough effect; inconclusive = small, poorly fitted or top-dose-only effect, or another doubt; inactive = no such curve, though single readings can be large or run the other way;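 also: the enzyme is Sfp with the accession as filed and its product quenches rhodamine fluorescence; potency is read from the fitted curve at half-maximal effect; 0% = enzyme reaction without inhibitor and -100% = no enzyme wells; top concentration of the series not given in the record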
#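 Compounds were incubated with enzyme (final 15 nM) for 15 min at room temperature before substrate addition started the reaction. Fluorescence at 525 nm excitation, 598 nm emission was recorded immediately and after 30 minutes.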
# * marks the source's active call; other numbers are inactive results; ? = inconclusive; · = not tested or not shown; [ ] = dose if it differs, or a comment. Random draw from the library; any-hit rate near 5.1%.
SMILES,Menin MLL FP FL,ClpP mod,gsp ag,D2 potentiator,gsp antagonist,TRPV1 potentiator,Sfp PPTase inh
O=C(Nc1cccc(CNCCc2c[nH]c3ccccc23)c1)c1ccccc1Cl,?,2.1%,17.9%,-24.4,5.0%,3.5,?
O=C(O)c1ccc(NS(=O)(=O)c2cccc3nsnc23)cc1,-4.2,0.2%,-22.8%,3.3,3.1%,0.3,-4.5%
Cc1cc(C(=O)CN2CCCC(C)C2)c(C)n1-c1ccc(F)cc1 (stereo not given),1.8,-1.7%,-68.0%[inhibitor],-21.7,15.1%,-2.7,-4.9%
CCCC(C)NC(=O)COc1ccc(S(=O)(=O)N2CCCC2)cc1 (stereo not given),0.5,·,-6.1%,5.9,4.2%,-2.3,5.3%
CCCS(=O)(=O)N1CCCC(C(=O)NCCCN2CCN(c3cccc(Cl)c3)CC2)C1 (stereo not given),1.3,-2.3%,-47.5%[inhibitor],-29.1,-2.3%,0.0,0.0%
O=S(=O)(c1ccccc1)N1CCN(c2nnc(-c3ccccc3)c3ccccc23)CC1,-1.5,·,7.8%[15.4 µM],-7.6,?,2.6,1.4%
COC(=O)CN(Cc1ccccc1)S(=O)(=O)c1ccc(OC)c(OC)c1,0.1,0.9%,13.1%,-9.5,-4.4%,1.0,27.8%
COc1cccc(/C=N/N=C(\N)c2nonc2N)c1O,-0.1,·,0.2%[15.4 µM],-5.9,14.7%,13.2,12.6%
COc1ccc(OC)c(S(=O)(=O)NCc2csc(-c3ccccc3)n2)c1,-2.8,-0.1%,-12.1%,-19.4,-12.1%,2.6,1.5%
CCOc1ccc(NC(=O)CCN2CCN(S(=O)(=O)c3ccc(Cl)cc3)CC2)cc1,0.8,-0.9%,-49.0%,-8.6,-4.3%,9.0,15.7%
O=C(COC(=O)Cc1ccc(S(=O)(=O)N2CCOCC2)s1)NCc1ccc(Cl)cc1,7.7,0.0%,19.5%,-6.2,-7.9%,-3.9,10.9%
COc1ccc(N2C(=O)CC(N3CCCCC3)C2=O)cc1 (stereo not given),-2.6,-0.2%,-51.2%[inhibitor],12.4,5.7%,-5.1,8.4%
Cc1cc(Br)ccc1SCC(=O)OCC(=O)NCc1ccco1,-1.7,·,-0.7%,1.0,-12.4%,-25.2,-25.5%
COCCN1C(=O)c2ccc(C(=O)Nc3cccnc3)cc2C1=O,·,-0.1%,-7.2%,-19.5,-7.9%,3.8,8.8%
O=C(CCCn1c(=O)[nH]c2cc(Cl)ccc2c1=O)NC1CCCCCC1,3.4,5.3%,16.5%,-12.7,7.6%,-7.8,8.3%
Cc1cccc(NC(=O)/C(C#N)=C/c2cn(CC(=O)NCc3ccco3)c3ccccc23)c1,9.7,-3.1%,?,-8.0,5.4%,2.9,-20.3%
Cc1ccc(NC(=S)NNC(=O)Cn2nc(C(F)F)cc2C(F)F)cc1,-0.5,0.8%,-2.6%,-7.3,6.5%,4.9,32.9%
Cc1nn(-c2ccccc2)c(C)c1/C=N/N1CCN(c2ccccn2)CC1,-2.4,·,-0.1%[15.4 µM],-2.1,3.1%,-7.8,79.4µM*
N#Cc1ccc(C(=O)Nc2cc(-c3ccccc3)nn2-c2ccccc2)cc1,·,-2.6%,-32.2%[inhibitor],-12.4,?,-0.4,·
Cc1cc(C)n(-c2ccc(C(=O)OC(C)C(=O)Nc3ccc(C(N)=O)cc3)cc2)n1 (stereo not given),·,·,22.8%[15.4 µM],-31.0,2.8%,-5.1,·
CN1CCN(C(=O)N2c3ccccc3CCc3ccccc32)CC1,-6.5,·,-1.0%[15.4 µM],-14.1,7.9%,20.4,8.1%
COc1ccccc1OCCOCCOc1ccc(C)cc1Br,2.8,1.0%,-44.0%[inhibitor],-13.3,-15.2%,0.3,-5.8%
COCCCNC(=O)CN(c1ccc(Cl)c(Cl)c1)S(C)(=O)=O,0.6,-1.4%,-24.8%,-0.7,7.0%,0.6,9.4%
CCCCOc1ccc(-c2ncc(Cl)cn2)cc1,0.1,-0.2%,-13.7%,-0.5,5.1%,5.4,16.7%
O=C(NC1CCCCC1)C1CCCN1S(=O)(=O)c1cccc2nsnc12 (stereo not given),-1.6,0.0%,6.9%,-3.0,9.1%,-8.9,3.8%
COc1ccc(/C=N/n2cnnc2)cc1Br,0.0,·,-3.5%[15.4 µM],-3.6,-2.0%,4.2,8.8%
O=C1NCCN/C1=C\C(=O)c1cccc(Br)c1,-8.6,-0.9%,4.2%,-17.9,3.6%,-8.1,15.6%
CSc1ccc(/C=C(/NC(=O)c2ccc(C)cc2)C(=O)Nc2cccc(F)c2)cc1,8.0,-3.4%,?,-5.8,7.4%,?,4.8%
Cc1cc(=O)n2nc(N3CCCC(C(=O)NCc4ccccc4Cl)C3)sc2n1 (stereo not given),·,-0.5%,10.6%,-1.0,4.1%,-4.9,8.5%
CC(C)S(=O)(=O)c1nsc2nc(=O)c(/C=C3\C=Nc4ccccc43)c(N)n12,10.2,-0.9%,4.4%,-3.5,-24.5%,3.2,1.3%
O=c1cc(-c2ccccc2)nc(SCc2ccc(Cl)cc2)[nH]1,5.2,0.3%,-60.7%[inhibitor],-9.1,2.5%,3.0,10.1%
O=C(NCCc1ccccc1)c1ccc(S(=O)(=O)N2CCCC2)cc1,·,-2.5%,-14.2%,4.4,2.9%,-12.3,·
Cc1nn(CC(=O)N2CCN(C(=O)c3ccco3)CC2)c(C)c1[N+](=O)[O-],·,?,-43.7%[inhibitor],-7.7,18.4%,·,·
Cc1cc(S(=O)(=O)NCc2ccccc2)ccc1OCC(=O)N1CCOCC1,-0.6,·,?,0.7,0.9%,-4.2,6.4%
Cc1ccc2[nH]c3c(c2c1)CN(C(=O)CN1CC(C)OC(C)C1)CC3 (stereo not given),?,-3.3%,5.8%,14.6,-6.1%,·,-16.6%
COc1cc(Cl)c(C)cc1NC(=O)CSc1sc2c(O)cc(=O)[nH]c2c1C#N,23.2,-0.3%,9.0%,-10.1,-5.2%,16.3,?
Cc1cccc(Cc2cnc(N3C(=N)SC(C)C3=O)s2)c1 (stereo not given),-3.9,·,1.7%[15.4 µM],-5.1,0.9%,5.0,-5.9%
CCN1CCN(S(=O)(=O)c2ccc(Cl)c(C(=O)NC(C)(C)C)c2)CC1,-5.9,-1.1%,-2.8%,-2.6,7.7%,0.4,3.3%
Cc1ccc(S(=O)(=O)N=S(CC2CC2(Cl)Cl)CC2CC2(Cl)Cl)cc1 (stereo not given),2.3,-2.8%,-3.3%,-12.9,-4.1%,0.9,-2.7%
O=C(O)CC1S/C(=N\N=C2CCCCCC2)N(c2ccccc2)C1=O (stereo not given),2.3,·,-6.2%[15.4 µM],-4.6,0.4%,-5.8,15.5%
NS(=O)(=O)c1ccc(NS(=O)(=O)c2cccs2)cc1,4.3,0.8%,0.2%,4.3,-4.2%,-22.9,12.3%
COc1cc2c(cc1OC)C(c1cccs1)N(C(=O)c1cccnc1)CC2 (stereo not given),-0.3,·,-10.0%,-4.1,11.5%,-15.3,12.5%
O=C(c1ccc(Cn2cc(Br)cn2)cc1)N1CCN(c2ccccc2)CC1,1.3,-0.6%,?,5.1,3.0%,-9.1,7.0%
N#CCCCSc1nnc(-c2ccccn2)o1,3.0,-10.5%,-30.8%[inhibitor],-4.4,15.7%,-5.0,1.1%
COc1ccc(C(=O)OCC(=O)Nc2ncc([N+](=O)[O-])s2)cc1OC,·,0.4%,-39.5%[inhibitor],-4.2,5.9%,-0.9,·
Cc1cccc(NC(=O)c2cc(NC(=O)c3ccccc3)ccc2N2CCCCC2)c1,-0.8,-8.2%,26.5%,-18.8,11.9%,14.2,22.6%
CSCCC(NC(=O)c1ccccc1Cl)C(=O)NC1CCN(Cc2ccccc2)CC1 (stereo not given),·,4.9%,?,-43.4,2.7%,4.6,1.5%
COc1cccc(-n2c(=O)[nH]cc(C(=O)Nc3ccc4c(c3)OCCO4)c2=O)c1,2.8,-0.8%,?,-3.2,-19.6%,1.7,17.2%
CCCCN1C(=O)C(=O)N(c2ccccc2)C1=S,0.1,-1.4%,18.6%,5.0,16.9%,-1.3,-9.6%
Brc1ccc(C2CC(c3ccccc3)=Nc3ccccc3N2)cc1 (stereo not given),1.6,-1.6%,10.0%[15.4 µM],-4.0,-6.4%,0.8,-21.7%
CC(O)CNCc1ccc(-c2ccccc2)cc1 (stereo not given),2.8,-2.2%,-21.0%,-13.9,8.3%,-1.1,14.6%

# Given with two lines to a compound: 9 of the compounds above.
# Values run as follows: Menin MLL FP FL, ClpP mod, gsp ag, D2 potentiator, gsp antagonist, TRPV1 potentiator, Sfp PPTase inh
- O=C(c1ccc(Cn2cc(Br)cn2)cc1)N1CCN(c2ccccc2)CC1
→ 1.3, -0.6%, ?, 5.1, 3.0%, -9.1, 7.0%
- N#CCCCSc1nnc(-c2ccccn2)o1
→ 3.0, -10.5%, -30.8%[inhibitor], -4.4, 15.7%, -5.0, 1.1%
- COc1ccc(C(=O)OCC(=O)Nc2ncc([N+](=O)[O-])s2)cc1OC
→ ·, 0.4%, -39.5%[inhibitor], -4.2, 5.9%, -0.9, ·
- Cc1cccc(NC(=O)c2cc(NC(=O)c3ccccc3)ccc2N2CCCCC2)c1
→ -0.8, -8.2%, 26.5%, -18.8, 11.9%, 14.2, 22.6%
- CSCCC(NC(=O)c1ccccc1Cl)C(=O)NC1CCN(Cc2ccccc2)CC1 (stereo not given)
→ ·, 4.9%, ?, -43.4, 2.7%, 4.6, 1.5%
- COc1cccc(-n2c(=O)[nH]cc(C(=O)Nc3ccc4c(c3)OCCO4)c2=O)c1
→ 2.8, -0.8%, ?, -3.2, -19.6%, 1.7, 17.2%
- CCCCN1C(=O)C(=O)N(c2ccccc2)C1=S
→ 0.1, -1.4%, 18.6%, 5.0, 16.9%, -1.3, -9.6%
- Brc1ccc(C2CC(c3ccccc3)=Nc3ccccc3N2)cc1 (stereo not given)
→ 1.6, -1.6%, 10.0%[15.4 µM], -4.0, -6.4%, 0.8, -21.7%
- CC(O)CNCc1ccc(-c2ccccc2)cc1 (stereo not given)
→ 2.8, -2.2%, -21.0%, -13.9, 8.3%, -1.1, 14.6%
